Screening data as filed in PubChem.
Resorufin autofl: qHTS Assay for Spectroscopic Profiling in Resorufin Spectral Region; Compound fluorescence, resorufin region 547/598 nm, buffer; hits give high values; max dye-equivalent concentration, M; 0.04% of 59,000 active; AID 588, 2007; active = above 10 nM dye equivalent; inconclusive = 1 to 10 nM; inactive = 1 nM or less; a few of its hits are not listed in these tables; further: highest value over a series up to 38 µM
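Read-out: intrinsic compound fluorescence at ex 547/em 598 nm after 15 min at RT in pH 8.0 Tris (100 mM). Values expressed as resorufin-equivalent concentration from per-plate standard series.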
TSHR ag: qHTS Assay for Agonists of the Thyroid Stimulating Hormone Receptor; Thyrotropin receptor (Homo sapiens), P16473; HEK293-CNG-TSHR cells (CNG channel as cAMP sensor), membrane potential dye, cAMP; Potency, µM (titrated, usually from 57.1 µM), inactives show at the top dose activation, usual class: activators; 0.48% of 73,000 active; AID 926, 2007; active = well fitted activation curve of enough size with the parental cells flat; inconclusive = any curve in the parental cells; inactive = parental cells flat and receptor cells flat or falling; further: potency means the concentration at half of the fitted maximal effect; % of control where 0% means no effect; weak receptor curves with flat parental cells got no call and are not listed
Target sequence (P16473 whole entry, looked up): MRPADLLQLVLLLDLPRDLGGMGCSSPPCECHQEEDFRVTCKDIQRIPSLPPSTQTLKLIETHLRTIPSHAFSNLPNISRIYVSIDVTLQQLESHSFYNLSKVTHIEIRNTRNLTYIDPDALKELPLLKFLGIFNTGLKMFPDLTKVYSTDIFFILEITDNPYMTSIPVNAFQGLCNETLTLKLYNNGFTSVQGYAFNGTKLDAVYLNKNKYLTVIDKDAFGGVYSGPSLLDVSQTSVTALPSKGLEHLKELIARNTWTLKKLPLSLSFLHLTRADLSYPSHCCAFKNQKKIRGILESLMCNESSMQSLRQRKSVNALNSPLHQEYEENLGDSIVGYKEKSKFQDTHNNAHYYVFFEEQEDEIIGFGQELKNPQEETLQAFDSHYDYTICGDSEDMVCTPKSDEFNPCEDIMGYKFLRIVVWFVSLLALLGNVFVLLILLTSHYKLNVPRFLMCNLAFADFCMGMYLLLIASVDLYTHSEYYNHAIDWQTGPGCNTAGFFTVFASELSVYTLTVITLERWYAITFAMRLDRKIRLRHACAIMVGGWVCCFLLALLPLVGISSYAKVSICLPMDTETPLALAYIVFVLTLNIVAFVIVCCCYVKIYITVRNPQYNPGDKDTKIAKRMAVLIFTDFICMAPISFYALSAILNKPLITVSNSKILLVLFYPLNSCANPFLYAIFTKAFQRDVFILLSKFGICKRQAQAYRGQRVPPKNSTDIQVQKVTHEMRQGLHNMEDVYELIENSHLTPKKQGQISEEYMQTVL
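cAMP rise detected as CNG-channel membrane depolarization by fluorescent dye (emission 590 nm), 30 min after compound, following 60 min dye loading containing 100 uM RO 20-1724 at room temperature. Cells: TSHR/CNG HEK 293, with parental CNG HEK 293 as control.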
A647 autofl: qHTS Assay for Spectroscopic Profiling in A647 Spectral Region. max dye-equivalent concentration, M. 59,000 tested, under 10 active. Compound fluorescence, A647 channel (570/671 nm), Tris buffer; active means above 1 µM dye equivalent; inconclusive means 0.1 to 1 µM; inactive means 0.1 µM or less;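 further: values scaled relative to a standard on each plate; highest value over a series up to 38 µM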
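Tris 100 mM pH 8.0; cpd + A647 stds pin-transferred; 15 min RT; CCD imager, ex 570/em 671. Output = A647-equivalent conc. per cpd conc.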
A488 fluor: qHTS Assay for Spectroscopic Profiling in A488 Spectral Region; 0.1% of 59,000 active; compound autofluorescence, A488 spectral region, dye equivalency; hits give high values; max dye equivalency, M; active = above 10 nM dye equivalent; inconclusive = 1 to 10 nM; inactive = 1 nM or less; about half of its hits are not listed in these tables;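 further: highest value over a series up to 38 µM; compound alone in buffer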
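Autofluorescence read at ex 480/em 540 nm after 15 min RT in 100 mM Tris pH 8.0; compound signal normalized to A488 standard series on each plate, reported as dye-equivalent concentration at each test concentration.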
AID923: qHTS Assay for Allosteric/Competitive Inhibitors of Caspase-1: Spectroscopic Profiling in AFC Spectral Region; compound fluorescence, AFC spectral region (405/520 nm); almost no hit is shown here; Potency, µM (highest dose often 57.5 µM), for inactives: at the highest dose fluorescence increase, actives largely listed as activators; 1.1% of 75,000 active; AID 923, 2007; active means well fitted activation curve with a large enough effect; inconclusive means small, poorly fitted or top-dose-only effect;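 further: potency means the concentration at half of the fitted maximal effect; 0% is about no effect; scaled to a free AFC standard on each plate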
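Baseline compound fluorescence (AFC region, 405 nm ex/520 nm em) taken from the intercept of kinetic reads with 50 nM caspase-1 and 5 uM Ac-WEHD-AFC; normalized to an on-plate AFC standard curve; compounds titrated up to 57 uM.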
* = called active by the depositor; i = inactive; ? = inconclusive; · = no result given; [ ] = another dose, or the depositor's remark. An excerpt; rates above refer to the full screens.

SMILES | Resorufin autofl | TSHR ag | A647 autofl | A488 fluor | AID923
O=C(O)c1ccc2c(c1)ncn2C1CCCCCC1 | i | -14% | 1e-09 | i | 1.4%
c1coc(-c2nnc(-c3cccs3)o2)c1 | i | -5% | 3.5e-09 | i | -1.4%
O=c1c2c3nc4ccccc4nc3n(CCN3CCOCC3)c2ncn1CCN1CCOCC1 | i | -1% | 2.2e-09 | i | 6.3%
COC(=O)c1cc2sccc2n1CC(=O)N1CCCc2ccccc21 | i | · | 1.5e-08 | i | 0.8%
O=C1CNC(=O)c2c(nc3n2CCC3)N1 | i | 18% | 1e-09 | i | 1.9%
CC1=C(C)CS(=O)N(c2ccc(S(N)(=O)=O)cc2)C1 (centres undefined) | i | -19% | 1e-09 | i | 2.0%
O=C(CSc1ccccc1)Nc1cccnc1 | i | -3% | 1e-09 | i | -0.4%
CC(C)=CCNc1ncnc2nc[nH]c12 | i | -7%[11.4 µM] | 3.6e-08 | i | -1.0%[11.5 µM]
COC(=O)CSc1nnc(-c2cccnc2)n1-c1cccc(OC)c1 | i | ? | 6.7e-08 | i | 1.7%
Cc1c(Cl)cccc1NC(=O)CSCc1cc(=O)[nH][nH]1 | i | -9% | 2.5e-08 | i | -0.2%

Brought forward from above: 2 entries, then new ones.
SMILES | Resorufin autofl | TSHR ag | A647 autofl | A488 fluor | AID923
COC(=O)CSc1nnc(-c2cccnc2)n1-c1cccc(OC)c1 | i | ? | 6.7e-08 | i | 1.7%
Cc1c(Cl)cccc1NC(=O)CSCc1cc(=O)[nH][nH]1 | i | -9% | 2.5e-08 | i | -0.2%
CCn1c(COc2ccc(C)cc2)nnc1SCC(=O)C(C)(C)C | i | 6% | 5.5e-09 | i | 0.3%
CCCN(CCC)C(=O)SCC | · | ? | · | · | -0.8%
O=[N+]([O-])c1ccc(S(=O)(=O)Cc2ccccc2)c([N+](=O)[O-])c1 | i | -8%[11.4 µM] | 1e-09 | i | 0.9%[11.5 µM]
CN(Cc1nc2ccccc2n1C)S(C)(=O)=O | i | 6% | 4.8e-09 | i | -2.7%
CC(C)(C)NC(=O)COC(=O)c1ccc(S(=O)(=O)N2CCCCCC2)cc1 | i | -1% | 1.6e-09 | i | -0.4%
O=C(c1ccc(Cl)cc1)C1CCN(C(=O)NC2CCCCC2)CC1 | i | 9% | 1.8e-08 | i | 0.2%
CCn1c(SCC(=O)c2cc(C)n(CC3CCCO3)c2C)nc2ccccc21 (centres undefined) | i | 14% | 2.7e-09 | i | 0.5%
O=C(COc1ncnc2ccccc12)c1ccc2c(c1)OCCO2 | i | -3% | 1e-09 | i | -1.3%
Cn1cnnc1SCC(=O)n1c2ccccc2c2ccccc21 | · | 1%[11.4 µM] | · | · | -0.2%
Cc1ccc(-n2[nH]c(C)c(C=Nc3ccc(C)cn3)c2=O)cc1 | i | 6%[11.4 µM] | 2.2e-08 | i | 0.9%
COc1ccccc1CN1CC[C@@]2(CCCN(S(C)(=O)=O)C2)C1 | i | 10% | 5.5e-09 | i | 1.4%
CC(C)Oc1ccc(C2C(C(=O)c3ccco3)=C(O)C(=O)N2CCCN(C)C)cc1 (centres undefined) | i | 0% | 5e-09 | i | 1.7%
O=C(CN1CCN(c2ccccc2)CC1)Nc1cccc(C(F)(F)F)c1 | i | 10%[11.4 µM] | 1.8e-08 | i | -3.6%
CCNc1ncc2nc(-c3cn(C)c4ccccc34)c(=O)n(Cc3ccc(F)cc3)c2n1 | i | 7% | 1e-09 | i | 19%
O=C(O)c1cccc(Nc2nc(N3CCOCC3)nc(N3CCOCC3)n2)c1 | i | 2% | 1e-09 | i | -2.0%
O=C1c2ccccc2-c2onc3ccc(NCc4ccco4)c1c23 | 1.7e-08M* | · | 1.1e-08 | 5.4e-08M* | ·
CC(c1ccccc1)C(CC(=O)O)C(=O)NC1CCCCC1 (centres undefined) | · | 4%[11.4 µM] | · | · | -4.4%
Cc1ccc(C(=O)Cn2c3c(sc2=N)CCCC3)cc1 | · | ? | · | · | -2.5%
Cn1c(CSc2nc3ccccc3s2)nnc1SCC(=O)NCCN1CCOCC1 | · | -1% | · | · | 0.3%
Clc1ccc(-c2nn3c(-c4ccccn4)nnc3s2)c(Cl)c1 | i | 25% | 1e-09 | i | -2.0%
Cc1ccc2c(c1)CC1(CN2C)C(=O)OC2(CCCCC2)OC1=O | i | 1% | 1e-09 | i | 0.3%
CC1=C(C(=O)Nc2ccccc2)C(c2ccco2)C(C#N)=C(SCC(=O)Nc2cccc(C)c2C)N1 (centres undefined) | i | 15% | 2.2e-09 | i | 6.0%
Cc1ccc(-c2nn3c(C)nnc3s2)cc1NC(=O)c1cccs1 | i | 4% | 6.5e-09 | i | 1.4%
Cn1cc(C2NC(=O)c3c(sc4c3CCCC4)N2)c2ccccc21 (centres undefined) | · | -15% | · | · | 7.1%
CCc1c(C)nc2c(C#N)c[nH]n2c1=O | i | 7% | 1e-09 | i | 1.4%
Cc1cccc(C)c1OCCCCc1c(C)n[nH]c1C | i | 18% | 3.6e-08 | i | -2.1%
COc1ccc(OC)c(NC(=O)CCNS(=O)(=O)c2cccs2)c1 | i | -4%[11.4 µM] | 1e-09 | i | -0.4%
O=C(NCc1cccs1)C(NS(=O)(=O)c1cccc2nsnc12)c1ccccc1 (centres undefined) | i | 12% | 1e-09 | i | -1.0%
Clc1ccc2c(c1)C1OCCC1C(c1ccco1)N2 (centres undefined) | i | · | 1.9e-08 | i | 2.5%
CN(C)S(=O)(=O)N1CCC(c2ccc(F)cc2)C(COc2ccc3c(c2)OCO3)C1 (centres undefined) | i | 22% | 3.7e-08 | i | 0.7%
Cc1cccc(CC2CC(=O)N(c3ccccc3)C2=O)c1 (centres undefined) | i | 3% | 4.3e-09 | i | 0.8%
CC(=O)N1CCC2(CCN(Cc3cc(C(F)(F)F)cc(C(F)(F)F)c3)CC2)CC1 | i | -3% | 4.5e-09 | i | -1.5%
CCCCc1cc2c(c(NC(=O)CC)n1)c(=O)oc1ccccc12 | i | 18% | 3.1e-08 | i | -0.6%
Cc1ccc(N(C(=O)CNC(=O)c2ccco2)C(C(=O)NC2CCCC2)c2cccnc2)cc1C (centres undefined) | i | 2% | 2.8e-08 | i | -0.4%
C/C=C\C1=C(CO)[C@H](O)[C@H]2O[C@H]2[C@H]1O | · | -4%[11.4 µM] | · | · | -2.5%[11.5 µM]
Cc1ccc2[nH]c(=O)c(N3CCOCC3)c(-c3ccccc3)c2c1 | i | 7% | 3.9e-09 | i | -3.1%
CCC(C)n1c(=O)c(C(=O)Nc2ccccc2S(N)(=O)=O)c(O)c2ccccc21 (centres undefined) | i | ? | 3.4e-08 | i | -1.1%
CCCC1(C(=O)OC)NC(c2cccc(F)c2)C2C(=O)N(CC)C(=O)C21 (centres undefined) | i | 23% | 1e-09 | i | 1.7%
CN1c2ccccc2N(C)C1c1c(O)ccc2ccccc12 | i | · | 1e-09 | i | ·
O=c1[nH]c(CN2CCCCC2)nc2c1C1(CCCCC1)Cc1ccccc1-2 | i | · | 9.5e-08 | i | ·

7 entries picked at random from those above:
SMILES | Resorufin autofl | TSHR ag | A647 autofl | A488 fluor | AID923
C/C=C\C1=C(CO)[C@H](O)[C@H]2O[C@H]2[C@H]1O | · | -4%[11.4 µM] | · | · | -2.5%[11.5 µM]
Cc1ccc2[nH]c(=O)c(N3CCOCC3)c(-c3ccccc3)c2c1 | i | 7% | 3.9e-09 | i | -3.1%
Cc1cccc(CC2CC(=O)N(c3ccccc3)C2=O)c1 (centres undefined) | i | 3% | 4.3e-09 | i | 0.8%
CCCC1(C(=O)OC)NC(c2cccc(F)c2)C2C(=O)N(CC)C(=O)C21 (centres undefined) | i | 23% | 1e-09 | i | 1.7%
O=c1[nH]c(CN2CCCCC2)nc2c1C1(CCCCC1)Cc1ccccc1-2 | i | · | 9.5e-08 | i | ·
CCCCc1cc2c(c(NC(=O)CC)n1)c(=O)oc1ccccc12 | i | 18% | 3.1e-08 | i | -0.6%
Cc1ccc(N(C(=O)CNC(=O)c2ccco2)C(C(=O)NC2CCCC2)c2cccnc2)cc1C (centres undefined) | i | 2% | 2.8e-08 | i | -0.4%

Next section:
SMILES | Resorufin autofl | TSHR ag | A647 autofl | A488 fluor | AID923
COc1ccc(CN2CCN(C(=O)c3ccco3)CC2)cc1OCc1ccccc1 | · | ? | · | · | 0.1%
COc1ccccc1CNc1nc(-c2ccc3c(c2)OCO3)nc2ccccc12 | i | 30% | 2.1e-09 | i | 2.4%
CCC(=O)CC(NC(=O)OC)c1ccccc1 (centres undefined) | · | -10%[11.4 µM] | · | · | -0.8%[11.5 µM]
O=C(CC1Nc2ccccc2NC1=O)NCCCN1CCCCCC1 (centres undefined) | i | 1% | 1e-09 | i | 1.5%
O=C(CSc1n[nH]c(=O)n1C1CC1)Nc1cc(Cl)ccc1Oc1ccccc1 | i | ? | 1e-09 | i | -0.1%
O=C(CSc1nnc(CNc2ccc(F)cc2)o1)N1CCN(C(=O)c2ccco2)CC1 | i | -3% | 5.9e-09 | i | -0.5%
CC(Oc1ccc2c(-c3ccccc3)cc(=O)oc2c1)C(=O)O (centres undefined) | i | -2% | 1e-09 | i | -0.6%
COC(=O)c1sccc1NC(=O)c1ccc(Cl)s1 | i | ? | 1.4e-08 | i | -0.4%
COc1ccc2[nH]c(=O)c(CN(C(=O)C3CCCO3)c3cccc(C)c3)cc2c1 (centres undefined) | i | 2% | 1.2e-09 | i | 0.4%
O=C1C=C[C@@H](O)[C@H]2[C@@H]3C(=O)N(C4CCCCC4)C(=O)[C@@H]3CC[C@H]12 | · | 6%[11.4 µM] | · | · | -1.0%[11.5 µM]
CCCCCCCC(=O)OCC(=O)[C@@]1(O)CC[C@H]2[C@@H]3CCC4=CC(=O)CC[C@]4(C)[C@H]3[C@@H](O)C[C@@]21C | i | · | 1e-09 | i | ·
Cc1cc(C(=O)OCC(=O)N2C(C)CCCC2C)c(C)o1 (centres undefined) | i | 2% | 2.1e-08 | i | -0.4%
CCCCOc1ccc(/C(O)=C2/C(=O)C(=O)N(CCCOC)C2c2ccncc2)cc1 (centres undefined) | i | -5% | 7.7e-09 | i | 0.0%
CCOC(=O)c1ccc(N2C(=O)c3n[nH]c(C)c3C2c2ccc(OC)cc2)cc1 (centres undefined) | i | ? | 3.1e-08 | i | -2.7%
O=C(c1ccco1)c1cn[nH]c1-c1ccc(Cl)cc1O | i | -9% | 1e-09 | i | -1.5%
CN1C(=O)c2ccccc2N(C)C1c1cccs1 (centres undefined) | i | 7% | 1e-09 | i | 17%
CC1CN(C(=O)c2cc3cc(Cl)cc(Cl)c3oc2=O)CC(C)O1 (centres undefined) | i | 4% | 1.7e-08 | i | 1.3%
CCOC(=O)C1=C(N)Oc2ccc(Br)cc2[C@@H]1[C@@H](C#N)C(=O)OCC | · | 0% | · | · | 0.1%
COC(=O)c1ccc(CSc2nc3c(cnn3-c3ccc(Cl)cc3)c(=O)[nH]2)o1 | i | 3% | 1.9e-08 | i | 0.9%
COC(=O)NCC(C)OC(=O)Nc1cccc(Cl)c1 (centres undefined) | i | -7% | 1.4e-09 | i | 0.7%
CC(C)(C)c1ccc(-c2nnc3sc(-c4ccccn4)nn23)cc1 | · | 22% | · | · | -0.7%
O=C(CSc1nc2ccccc2c(=O)[nH]1)N1CCCCC1 | · | -6% | · | · | 0.7%
COc1ccc(N2C(=O)CCC2=O)cc1 | · | -4%[11.4 µM] | · | · | 2.1%
CCN(CCCNC(=O)C1CCC(=O)N1Cc1ccc(F)cc1)c1cccc(C)c1 (centres undefined) | i | 1% | 1.1e-08 | i | 0.0%
